TSHR ag: qHTS Assay for Agonists of the Thyroid Stimulating Hormone Receptor; HEK293-CNG-TSHR cells (CNG channel as cAMP sensor), membrane potential dye, cAMP; Thyrotropin receptor (Homo sapiens), P16473; 73,000 compounds, 0.48% hits; Potency, µM (doses to about 57.1 µM), for the others: at the highest dose activation, usual class: activators; active = well fitted activation curve of enough size with the parental cells flat; inconclusive = any curve in the parental cells; inactive = parental cells flat and receptor cells flat or falling; also: potency is read from the fitted curve at half-maximal effect; % of control where 0% means no effect; weak receptor curves with flat parental cells got no call and are not listed
Target sequence (P16473 whole entry, looked up): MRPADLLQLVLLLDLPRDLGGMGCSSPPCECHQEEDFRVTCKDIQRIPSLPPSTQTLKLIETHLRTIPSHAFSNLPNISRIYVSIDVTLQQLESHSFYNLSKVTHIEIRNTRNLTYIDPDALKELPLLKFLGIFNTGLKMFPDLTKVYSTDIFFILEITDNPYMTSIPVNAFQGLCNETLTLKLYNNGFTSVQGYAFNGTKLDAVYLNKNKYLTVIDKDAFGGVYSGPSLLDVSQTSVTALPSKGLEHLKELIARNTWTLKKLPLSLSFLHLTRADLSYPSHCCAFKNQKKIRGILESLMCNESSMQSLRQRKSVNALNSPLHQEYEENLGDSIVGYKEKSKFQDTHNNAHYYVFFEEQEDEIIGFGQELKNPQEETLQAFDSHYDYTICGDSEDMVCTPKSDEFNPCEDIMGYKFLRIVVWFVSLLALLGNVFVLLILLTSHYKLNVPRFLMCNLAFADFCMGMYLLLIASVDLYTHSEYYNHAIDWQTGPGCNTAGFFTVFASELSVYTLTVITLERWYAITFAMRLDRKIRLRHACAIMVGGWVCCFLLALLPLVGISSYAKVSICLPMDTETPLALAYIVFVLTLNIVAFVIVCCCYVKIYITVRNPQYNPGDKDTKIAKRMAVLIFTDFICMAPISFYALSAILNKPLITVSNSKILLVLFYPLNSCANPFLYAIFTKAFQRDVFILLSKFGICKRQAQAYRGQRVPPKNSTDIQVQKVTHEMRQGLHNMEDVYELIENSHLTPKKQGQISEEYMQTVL
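cAMP rise detected as CNG-channel membrane depolarization by fluorescent dye (emission 590 nm), 30 min after compound, following 60 min dye loading containing 100 uM RO 20-1724 at room temperature. Cells: TSHR/CNG HEK 293, with parental CNG HEK 293 as control.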
Resorufin fluor: qHTS Assay for Spectroscopic Profiling in Resorufin Spectral Region; Compound fluorescence, resorufin region 547/598 nm, buffer; active compounds read high; 59,000 compounds, 0.04% hits; max dye-equivalent concentration, M; AID 588, 2007; active = above 10 nM dye equivalent; inconclusive = 1 to 10 nM; inactive = 1 nM or less; a few of its hits are not listed in these tables; also: highest value over a series up to 38 µM
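Compounds in 100 mM Tris buffer, pH 8.0, incubated 15 min at room temperature, then read with 547 nm excitation and 598 nm emission filters. Fluorescence was converted to dye-equivalent concentration using an on-plate six-point resorufin standard curve.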
A647 fluor: qHTS Assay for Spectroscopic Profiling in A647 Spectral Region; Compound fluorescence, A647 channel (570/671 nm), Tris buffer; max dye-equivalent concentration, M; AID 592, 2007; 59,000 tested, under 10 active; active means above 1 µM dye equivalent; inconclusive means 0.1 to 1 µM; inactive means 0.1 µM or less;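 also: values scaled relative to a standard on each plate; highest value over a series up to 38 µM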
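Spectral profiling of library compounds in pH 8.0 Tris: 15 min room-temperature incubation, single ex/em pair (570/671 nm), response normalized to Alexa 647 equivalents.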
AID923: qHTS Assay for Allosteric/Competitive Inhibitors of Caspase-1: Spectroscopic Profiling in AFC Spectral Region | AID 923, 2007 | compound fluorescence, AFC spectral region (405/520 nm); almost no hit is shown here | Potency, µM (top dose mostly 57.5 µM), inactives show at the top dose fluorescence increase, hits mostly activators | 75,000 compounds, 1.1% hits; active = well fitted activation curve with a large enough effect; inconclusive = small, poorly fitted or top-dose-only effect;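 also: potency is read from the fitted curve at half-maximal effect; 0% is about no effect; scaled to a free AFC standard on each plate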
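Titrations up to 57 uM read every 20 sec for 3 min (405/520 nm) with 50 nM caspase 1 and 5 uM Ac-WEHD-AFC, pH 7.5 HEPES buffer. Fluorescence-vs-time intercept gave baseline, scaled against on-plate AFC standard.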
A488 fluor: qHTS Assay for Spectroscopic Profiling in A488 Spectral Region; max dye equivalency, M; compound autofluorescence, A488 spectral region, dye equivalency; active compounds read high; 59,000 compounds, 0.1% hits; AID 591, 2007; active = above 10 nM dye equivalent; inconclusive = 1 to 10 nM; inactive = 1 nM or less; about half of its hits are not listed in these tables;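 also: highest value over a series up to 38 µM; compound alone in buffer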
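Compound autofluorescence was read in 100 mM Tris pH 8.0 after 15 min at room temperature, ex 480 nm/em 540 nm. Intensities were converted to A488 dye-equivalent concentration using an on-plate six-point A488 standard curve.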
* = called active by the depositor; i = inactive; ? = inconclusive; . = no result given; [ ] = remark or other dose.

SMILES	TSHR ag	Resorufin fluor	A647 fluor	AID923	A488 fluor
CCN(CC)C(=O)C1CC(=O)OC1(C)C (stereo not drawn)	-1%	i	2.3e-09	0.5%	i
Cn1c(=O)oc2cc(S(=O)(=O)N3CCC(C(=O)NCC4COc5ccccc5O4)CC3)ccc21 (stereo not drawn)	-17%	.	.	1.3%	.
Cc1ccc(S(=O)(=O)N2CCC(C(=O)Nc3nnc(C4CCCC4)s3)CC2)cc1	-13%	i	1.1e-09	2.7%	i
N#CCCn1c(=O)c(-c2ccc(Cl)cc2)nc2cnc(Oc3ccccc3)nc21	4%	i	2.8e-09	16%	i
Cc1ccc2nc(NCCCNC(=O)c3cnccn3)c(C#N)cc2c1	.	i	1e-09	10%	i
O=C(C1CCC1)N1CCc2cc(S(=O)(=O)Nc3ccc4c(c3)OCCO4)ccc21	?	i	7.5e-09	0.1%	i
CC(=O)Nc1nc2c(c3c1c(=O)oc1ccccc13)CC(C)CC2 (stereo not drawn)	23%	i	1e-09	1.9%	i
O=C(CSCc1ccccc1)N1CCN(c2ccc(F)cc2)CC1	?	.	.	-0.1%	.
COc1cc(N2CCCC2)c(OC)cc1/C=c1/sc2nc3ccccc3n2c1=O	.	i	1.6e-08	.	i
O=C(Nc1ccccc1)[C@@]12C[C@@H]1/C(=N/O)c1ccccc1O2	?	.	.	-0.9%	.
COC(=O)Nc1sc2c(c1C(=O)NCc1ccco1)CCCC2	?	i	2.1e-09	-0.1%	i
O=C(CCN1C(=O)c2ccccc2C1=O)Nc1ccc(F)cc1	-9%	.	.	0.5%	.
O=C(Nc1nnc(COc2ccc(Cl)cc2)s1)C1CCCO1 (stereo not drawn)	10%	i	3.1e-08	-2.0%	i
CN(C)c1ccnc(NCc2ccccc2)c1C#N	11%	i	4.1e-09	0.3%	i
COc1ccc(N2CCN(c3nc4c(c(=O)[nH]c(=O)n4C)n3CCCc3ccccc3)CC2)cc1	.	i	5.2e-08	.	i

In the list so far, these have a halogen:
SMILES	TSHR ag	Resorufin fluor	A647 fluor	AID923	A488 fluor
N#CCCn1c(=O)c(-c2ccc(Cl)cc2)nc2cnc(Oc3ccccc3)nc21	4%	i	2.8e-09	16%	i
O=C(CSCc1ccccc1)N1CCN(c2ccc(F)cc2)CC1	?	.	.	-0.1%	.
O=C(CCN1C(=O)c2ccccc2C1=O)Nc1ccc(F)cc1	-9%	.	.	0.5%	.
O=C(Nc1nnc(COc2ccc(Cl)cc2)s1)C1CCCO1 (stereo not drawn)	10%	i	3.1e-08	-2.0%	i

(cont.)
SMILES	TSHR ag	Resorufin fluor	A647 fluor	AID923	A488 fluor
CCC(=O)n1nc(-c2ccco2)nc1SCc1ccccc1	22%	i	2.9e-09	-2.3%	i
Cn1c(C(=O)N2CCN(Cc3ccc4c(c3)OCO4)CC2)cc2c(=O)n(C)c3ccccc3c21	-33%[inhibitor]	.	.	0.8%	.
CC(NC(=O)NCCCn1ccnc1)(C(F)(F)F)C(F)(F)F	.	i	2.8e-09	.	i
CC(C)(C)n1nnnc1CN1CCN(C2CCCC2)CC1	3%	i	3.7e-08	0.9%	i
COc1ccc(C(=O)CSc2n[nH]c(-c3ccco3)n2)cc1	20%[11.4 µM]	.	.	-0.1%	.
O=C(NCCN1CCCCC1)c1cc2ccccc2[nH]1	5%	i	2.7e-08	-2.0%	i
CCCN1C(=O)c2ccc(C(=O)Nc3nccs3)cc2C1=O	-4%	i	7.4e-09	-0.5%	i
COC(=O)c1ccccc1N=C(SC)N(C)C	1%	i	1e-09	2.3%	i
Cc1oc(-c2ccc(Cl)cc2)nc1CN1CCCC(C(=O)NCCCN2CCOCC2)C1 (stereo not drawn)	10%[11.4 µM]	i	3.4e-09	-1.5%	i
CCOC(=O)c1ccc(NC(=O)Cn2nnc(-c3ccc(C)cc3)n2)cc1	3%[11.4 µM]	i	6.7e-09	1.2%	i
Cc1nc(Nc2nc3ccccc3o2)nc2c1CCC2	4%	.	.	2.3%	.
c1ccc(C(c2ccccc2)N2CCCC3(CCNCC3)C2)cc1	-11%	i	2.8e-08	-1.6%	i
CCCCN(CC)CCCNC(=O)Cn1nc(Cc2ccncc2)c2ccccc2c1=O	0%	i	2.3e-09	-0.7%	i
COC(=O)c1[nH]c2cccc(C)c2c1NC(=O)CN1CCN(C(=O)c2ccco2)CC1	-1%	i	1e-09	0.4%	i
Cc1ccc(OCC(=O)Nc2ccc(N(C)C)cc2)cc1	-7%	i	1e-09	1.6%	i
CC(Oc1ccc(-c2ccccc2)cc1)C(=O)N1CCOCC1 (stereo not drawn)	14%	i	1e-09	1.5%	i
Brc1ccc(CSc2nnc(-c3cnccn3)n2Cc2ccco2)cc1	?	i	2.3e-08	-0.7%	i
CCC(=O)Nc1sccc1C(=O)OC	-2%	.	.	-0.4%	.
CCOC(=O)Cn1cnc2c(nnn2Cc2ccc(Cl)cc2)c1=O	-1%	i	1e-09	-1.1%	i
CCC1(CC)NC(=O)NC1=O	-3%	i	1e-09	0.8%	i
Cc1cccc(Cn2cnc3c(nnn3Cc3ccc(F)cc3)c2=O)c1	10%	i	3.8e-09	-1.1%	i
CN1CCN(C(=O)CC23CC4CC(CC(C4)C2)C3)CC1	-5%	i	1e-09	-1.4%	i
CCOC(=O)c1[nH]c(C)c(C(=O)NC(C)CC)c1C (stereo not drawn)	-11%	.	.	1.3%	.
COC(=O)[C@H](C)NC(=O)Nc1ccc(OC)cc1OC	-5%	i	1.4e-09	-2.1%	i
O=C(CSc1ncc(-c2ccccc2)nn1)NCc1ccco1	-1%	i	2.8e-08	-0.7%	i
O=C1CCCc2c1cc(C(=O)NCCCN1CCOCC1)c(=O)n2-c1ccc(Cl)cc1	14%	.	.	0.4%	.
CCCOC(=O)CSC1=C(C#N)C(c2ccccc2OCC)C(C#N)C(=O)N1 (stereo not drawn)	.	i	8e-08	.	i
O=C(Nc1cccc2ccccc12)c1ccccc1	3%[11.4 µM]	i	1e-09	-3.1%[11.5 µM]	i
O=C(CNc1ccc(Oc2ccccc2)cc1)N1CCOCC1	7%	i	3.2e-08	2.2%	i
COCCOC(=O)c1c(C)oc2ccc(OCc3cc(C(=O)OC)oc3C)cc12	?	i	3.6e-08	-1.0%	i
COc1cc(-c2nc3ccccn3c2NCC2CCCO2)ccc1O (stereo not drawn)	-8%	i	1e-09	14%	i
c1ccc2c(c1)nc(-c1ccncc1)n1nnnc21	-3%	i	1e-09	5.0%	i
COC(=O)CSC1=C(C#N)C(=O)NC2(CCCCC2)S1	.	i	3.4e-09	.	i
c1ccc(-c2cc(N3CCCCCC3)n[nH]2)cc1	-12%	i	1.7e-08	2.1%	i
Cc1c2c(nc3c(C)cccc13)OC(C)C2 (stereo not drawn)	?	i	1e-09	1.0%	i
CCOC(=O)c1ccc(NC(=O)C2C3C=CC(C3)C2C(=O)O)cc1 (stereo not drawn)	-6%	.	.	0.7%	.
O=C(CSc1nc2ccccc2c(=O)[nH]1)c1ccc(O)c(O)c1	0%[11.4 µM]	i	9.8e-09	-1.7%	i
CCn1c(SCC#N)nc2c(c1=O)C1(CCCC1)Cc1ccccc1-2	?	i	5.8e-08	-1.1%	i
Cc1noc(C)c1COC(=O)CCCc1nc2ccccc2s1	6%	i	1e-09	-0.5%	i
CC(=O)N[C@@H](CS)C(=O)O	.	i	3.4e-08	6.7%	i
CC(=O)NC1C(=O)N(CCc2ccccc2)c2ccccc21 (stereo not drawn)	-2%	i	1e-09	0.2%	i
Cc1ccc(C)c(N2CCN(C(=O)COc3cc(=O)n(C)c4ccccc34)CC2)c1	1%[11.4 µM]	i	2.5e-09	-0.5%	i
O=C(CS(=O)(=O)Cc1ccccc1)N1CCc2ccccc2C1	-5%	i	2.9e-09	-0.1%	i
CC(C)CNS(=O)(=O)c1ccc(C(=O)Nc2ccc3c(c2)OCCO3)cc1	-6%	i	1.4e-08	-1.2%	i
O=c1cc(-c2ccccc2)nc2nc(SCc3ccccc3)[nH]n12	-11%	i	1e-09	-2.2%	i
Cc1cc2nc(SCCN3CCCC3)[nH]c2cc1C	?	.	.	1.2%	.
O=C1NCCN1C(=O)C12CC3CC(CC(C3)C1)C2	-1%	i	2e-08	-0.5%	i
O=C1CC(N2CCOCC2)C(=O)N1c1ccccc1Cl (stereo not drawn)	23%	i	1e-09	1.4%	i
O=C1NC(c2cccc([N+](=O)[O-])c2)=CCN1c1ccccc1O	-7%	i	1e-09	-2.8%	i
COC(=O)c1cc(C(=O)OC)cc(-n2c(C)cc(C(=O)CC#N)c2C)c1	3%[11.4 µM]	i	1e-09	-0.5%	i
COc1ccc(Oc2ncc3ncc(=O)n(Cc4cccs4)c3n2)cc1	?	i	2.3e-08	1.4%	i
CCOC(=O)NC1(C(F)(F)F)NC(=O)N(C2CCCCC2)C1=O (stereo not drawn)	-1%	i	3.1e-08	-0.9%	i
CC(C)(S)[C@H](N)C(=O)O	-2%[11.4 µM]	i	1e-09	-1.4%[11.5 µM]	i
Cn1ccc2cc(NC(=O)Nc3cccnc3)ccc21	-15%	.	.	-0.3%	.
Cc1cc(C(F)(F)F)c2sc(N)nc2n1	2%[11.4 µM]	i	1e-09	0.7%	i
COc1ccc(Cc2nnc(SCC(=O)Nc3ncc(C)s3)o2)cc1	?	i	1e-09	3.1%	i
Cc1ccc(Nc2cc(C)nc3nc(C)nn23)cc1	14%	.	.	-3.6%	.
CCC(C)(C)n1nnnc1C(c1cccc(C#N)c1)N1CCN(c2cccc(C)c2C)CC1 (stereo not drawn)	?	i	1e-09	1.3%	i
COc1ccccc1CNC(=O)CCn1c(=O)[nH]c2ccsc2c1=O	0%	i	1e-09	0.3%	i
O=c1c2ccccc2nnn1CSc1nc2sc3c(c2c(=O)n1CC1CCCO1)CCC3 (stereo not drawn)	19%	i	1e-09	1.0%	i
(further entries)
SMILES	TSHR ag	Resorufin fluor	A647 fluor	AID923	A488 fluor
CC(NC(=O)c1ccccc1Cl)C1COc2ccccc2O1 (stereo not drawn)	7%	i	1.4e-08	1.9%	i
COc1ccc(C=NCCCN2CCOCC2)cc1	.	i	1e-09	.	i
CN(c1ccc(C(=O)Nc2cccnc2)cc1)S(C)(=O)=O	6%	i	1e-09	2.2%	i
O=C1C(=O)N(CCCn2ccnc2)C(c2cccnc2)/C1=C(/O)c1ccc(F)cc1 (stereo not drawn)	-6%	.	.	-1.1%	.
OC1CCCCC1Sc1nc2ccccc2s1 (stereo not drawn)	.	i	4.1e-08	-0.7%	i
COc1ccccc1CNC(=O)C1CCCN(S(=O)(=O)c2c(C)[nH]c(=O)[nH]c2=O)C1 (stereo not drawn)	-3%[11.4 µM]	i	2.9e-08	-2.1%	i
O=C(CN1C(=O)COc2ccccc21)c1cccc(Cl)c1	12%	i	1e-09	0.8%	i
CS(=O)(=O)Nc1c(O)ccc2c1CCC[C@H]2C1=NCCN1	6%	.	.	-0.5%	.
NS(=O)(=O)c1cc(C(=O)O)c(O)c2ccccc12	3%[11.4 µM]	i	1e-09	2.9%[11.5 µM]	i
Cn1nnnc1SCC(=O)c1ccco1	-1%[11.4 µM]	i	2.4e-08	-0.7%	i
COC(=O)C(CC(=O)c1ccc(Br)cc1)n1ccnc1 (stereo not drawn)	5%	i	2.3e-09	2.0%	i
COc1ccc(-c2ccc(-c3nnc(-c4ccncc4)o3)cc2)cc1	11%	i	2.2e-09	-0.9%	i
O=C(Nc1cccnc1)Nc1ccc(F)c(Cl)c1	-16%	i	5.3e-09	-0.1%	i

Compound activity deposited in PubChem BioAssay by National Center for Advancing Translational Sciences (NCATS).

A portion of the library. The share of hits here may be higher or lower than overall.
